KCNQ2 inh = KCNQ2 channel blockers in CHO-K1 cells – cell-based, FluxOR thallium flux, B-score, primary screen (AID 2156); O88943; 20 min; hits give low values; only compounds with negative scores are shown here; some inactives read as strong as hits; B-score at 10 µM; 310,000 compounds, 1.1% hits;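 active = fluorescence ratio B-score at most minus 3 library SDs, with starting brightness B-score within 2 library SDs, cut at about -5.5 in these data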
Target sequence (O88943 whole entry, looked up): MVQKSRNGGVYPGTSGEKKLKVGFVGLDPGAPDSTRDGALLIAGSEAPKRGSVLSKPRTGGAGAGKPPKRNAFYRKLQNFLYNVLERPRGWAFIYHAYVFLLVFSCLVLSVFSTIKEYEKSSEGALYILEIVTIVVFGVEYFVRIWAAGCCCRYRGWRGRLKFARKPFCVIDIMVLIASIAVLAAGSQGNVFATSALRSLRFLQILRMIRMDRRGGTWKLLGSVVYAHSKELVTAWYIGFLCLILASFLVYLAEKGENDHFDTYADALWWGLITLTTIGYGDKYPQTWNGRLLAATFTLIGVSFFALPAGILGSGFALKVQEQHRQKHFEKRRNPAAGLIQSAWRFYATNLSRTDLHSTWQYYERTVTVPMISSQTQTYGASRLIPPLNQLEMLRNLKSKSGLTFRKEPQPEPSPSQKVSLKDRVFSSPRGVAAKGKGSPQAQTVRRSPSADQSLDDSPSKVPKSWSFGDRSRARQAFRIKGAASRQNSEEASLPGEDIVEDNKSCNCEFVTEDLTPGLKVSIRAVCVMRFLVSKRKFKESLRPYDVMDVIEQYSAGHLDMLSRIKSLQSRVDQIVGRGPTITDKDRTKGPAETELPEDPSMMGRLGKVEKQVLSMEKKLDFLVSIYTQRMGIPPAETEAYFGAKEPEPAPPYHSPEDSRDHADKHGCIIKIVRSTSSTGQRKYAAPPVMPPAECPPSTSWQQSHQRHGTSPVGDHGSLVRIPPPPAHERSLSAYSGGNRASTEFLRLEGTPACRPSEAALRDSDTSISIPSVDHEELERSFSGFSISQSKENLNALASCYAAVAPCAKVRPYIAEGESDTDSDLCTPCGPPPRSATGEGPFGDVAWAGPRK
KCNQ2 inh baseline = also measured in KCNQ2 inh; calls as there; B-score; measured here: initial fluorescence intensity artifact check;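 brightness before thallium and not channel activity; 0 = typical well and far values either way flag optical interference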
* = called active by the depositor; i = inactive. A portion of the library; the hit share may differ from the screen's.

Order of values – KCNQ2 inh baseline | KCNQ2 inh
- CCC1S/C(=N/N=C/c2ccco2)N(Cc2ccccc2C)C1=O (stereo not given)
    0.94 | i
- CC(=O)OC(/C(O)=C(\C#N)c1nc2ccccc2[nH]1)c1ccccc1 (stereo not given)
    0.54 | i
- O=C(NCc1ccccc1)C1CC(=O)N(c2ccc(OCC(=O)N3CCOCC3)cc2)C1 (stereo not given)
    0.6 | i
- O=C1Cc2cc(NS(=O)(=O)c3ccc([N+](=O)[O-])cc3)cc3c2N1CCC3
    -0.41 | i
- COCCNC(=O)C1CCC(CNS(=O)(=O)c2ccc(F)cc2)CC1 (stereo not given)
    1.77 | i
- O=c1[nH]c2ccc(S(=O)(=O)N3CCN(c4ccc(F)cc4)CC3)cc2o1
    0.04 | i
- Cn1ncc(Br)c1C(=O)Nc1ccc(F)cc1F
    -1.99 | i
- O=C(c1cc(COc2ccc(-n3cncn3)cc2)on1)N1CCCC1
    -0.15 | i
- Cn1nnnc1SCC(=O)Nc1cccc([N+](=O)[O-])c1
    0.96 | i
- CCc1cccc(C)c1NC(=S)N(CCCN1CCOCC1)Cc1cccnc1
    0.48 | i
- Cc1onc(-c2ccccc2Cl)c1C(=O)Nc1ccc(-n2nncc2C(C)(C)C)cc1
    -0.58 | i
- S=C(Nc1nc2c(s1)CCCC2)NC1CC1
    1.98 | i
- Cn1cccc1Cc1nnc(SCC(=O)N2CCCc3ccccc32)n1-c1ccc(F)cc1
    -2.12 | i
- CCn1cc(C(=O)NCCc2ccc(C)cc2)c(=O)c2cc(S(=O)(=O)N(C)C)ccc21
    0.5 | i
- O=C(OCCOc1cccc(Cl)c1)c1ccc2ncsc2c1
    0.34 | i

Order of values – KCNQ2 inh baseline | KCNQ2 inh
- Cn1c(SCC(=O)c2ccccc2)nnc1-c1cccs1
    1.25 | i
- Cc1nnsc1-c1onc(C)c1C(=O)O/N=C/c1ccc(Cl)cc1
    -0.31 | i
- CC(C)CN(CC(C)C)S(=O)(=O)N1CCC(C(=O)NCc2cccs2)CC1
    1.64 | i
- CC(C)(C)c1nnc(NC(=O)CS(=O)(=O)Cc2ccccc2)s1
    -0.01 | i
- O=C(NC1CCCCC1)[C@H](CSCc1ccccc1)N1Cc2ccccc2C1=O
    -0.63 | i
- Cc1onc(-c2ccccc2)c1C(=O)Nc1nc(-c2cc(F)ccc2F)cs1
    -1.82 | i
- O=C(Nc1ncc2c(n1)CC(c1ccc(Cl)cc1)CC2=O)c1ccco1 (stereo not given)
    0.21 | i
- CC1=NC(C)(C)Cc2ccccc21
    -0.53 | i
- CC(C)OC(=O)CN1CCN(C2c3ccccc3-c3ccccc32)CC1
    0.82 | i
- O=C1C(c2ccc(F)cc2)N(Cc2ccc3c(c2)OCO3)C(=O)CN1C1CCCCCC1 (stereo not given)
    2.59 | i
- O=S(=O)(c1cccc2cccnc12)N1CCN(c2ccccc2)CC1
    0.47 | i
- O=C(NCC1CCCO1)Nc1ccc2c(c1)OCO2 (stereo not given)
    1.63 | i
- Cc1ccc(NC(=O)CC2CS(=O)(=O)CC2CC(=O)Nc2ccc(C)c(C)c2)cc1C (stereo not given)
    -0.71 | i
- CC1(C)C2C/C(=N\O)C(C)(/[N+]([O-])=C/c3cccc([N+](=O)[O-])c3)CC21 (stereo not given)
    1.7 | i
- O=C1S/C(=C\c2ccc(N3CCOCC3)o2)C(=O)N1Cc1c(F)cccc1Cl
    1.99 | i

Order of values – KCNQ2 inh baseline | KCNQ2 inh
- CCN(Cc1cnn(C)c1)C(=O)c1cc(COc2ccc(F)cc2F)on1
    2.15 | i
- CN(CC(=O)Nc1ccc(F)c(F)c1F)C1CCCCC1
    -0.88 | i
- Oc1ccc(Cc2ncc(C(F)(F)F)cc2Cl)cc1
    0.62 | i
- CCOC(=O)c1c(NC(=S)NC(C)=O)sc(C)c1C
    -0.71 | i
- CNC(=O)/C=C1\NC(C)(C)Cc2c1ccc1ccccc21
    0.45 | i
- Cn1c(=O)[nH]c(=O)c2c1nc(Br)n2CCC(=O)c1ccccc1
    -1.14 | i
- C=CCn1c(C2CCCCC2)n[nH]c1=S
    0.85 | i
- O=C(NNC(=O)C1C2C=CC(C2)C1C(=O)O)c1ccccc1 (stereo not given)
    -0.62 | i
- Cc1nn(-c2ccccc2)c(C)c1-c1ccccc1O
    0.17 | i
- COc1ccc(OCC(O)Cn2c(Nc3cccc(C)c3)nc3c2c(=O)n(C)c(=O)n3C)cc1 (stereo not given)
    1.39 | i
- O=S(=O)(NCc1ccccc1)c1ccc(S(=O)(=O)N2CCCCC2)cc1
    0.65 | i
- O=C(COc1ccc2c3c(c(=O)oc2c1)CCC3)c1ccc2c(c1)OCO2
    0.66 | i
- Cc1ccc(S(=O)(=O)N(CC(=O)NCc2ccncc2)Cc2ccccc2F)cc1
    -0.38 | i
- CCOc1cc(/C=N\Nc2nc(-c3ccc(C)cc3)c(NC(C)=O)s2)ccc1O
    1.8 | i
- CCOn1c(SCC)nc2ccccc2c1=O
    1.41 | i

Order of values – KCNQ2 inh baseline | KCNQ2 inh
- COC(=O)C(C)Sc1nc2ccsc2c(=O)n1Cc1ccccc1 (stereo not given)
    0.06 | i
- CCC(C)(C(=O)NC1CCCCC1)N(C(=O)CNC(=O)c1ccccc1)c1c(C)n(C)n(-c2ccccc2)c1=O (stereo not given)
    1.09 | i
- O=C(O)CCC(=O)N1CCc2cc(S(=O)(=O)N3CCN(c4ccc(F)cc4)CC3)ccc21
    0.9 | i
- O=c1oc2cc(O)ccc2cc1-c1ccc(F)cc1
    0.22 | i
- Cc1ccc(C2CC(=O)NC(SCC(=O)OCc3ccccc3)=C2C#N)o1 (stereo not given)
    -0.18 | i
- CNC(=O)COc1ccc(S(=O)(=O)N2CCCC2)cc1
    -0.18 | i
- CCC(C)NC(=O)Cc1c(OC)ccc2cc(Br)ccc12 (stereo not given)
    0.22 | i
- O=C(O)CCNC(=O)COc1ccc2c3c(c(=O)oc2c1)CCCC3
    -2.19 | i
- Cc1cc(C(=O)CSc2nnc(-c3cccnc3)n2-c2ccccc2)c(C)n1CC1CCCO1 (stereo not given)
    0.53 | i
- O=C(Nc1ccc(N2CCOCC2)c(Cl)c1)c1c(F)c(F)c(F)c(F)c1F
    -0.11 | i
- Cc1ccccc1Cn1nnc(-c2ccc(F)cc2)n1
    0.7 | i
- COc1ccccc1C1CCN(Cc2ccc(Cl)cc2Cl)CC1
    -0.13 | i
- NS(=O)(=O)c1ccc(NC(=O)COC(=O)c2ccc([N+](=O)[O-])s2)cc1
    -0.78 | i
- CC(=O)c1cccn1S(=O)(=O)c1ccccc1
    0.68 | i
- COc1ccc(S(=O)(=O)N2CCN(C(=O)c3oc4ccccc4c3C)CC2)cc1
    0.74 | i

Order of values – KCNQ2 inh baseline | KCNQ2 inh
- Cc1ccc(-n2nnnc2SCC(=O)N2CCCCC2)cc1
    0.3 | i
- Cc1csc(Sc2ccc([N+](=O)[O-])cc2C(=O)OCC(=O)NC2CCCC(C)C2C)n1 (stereo not given)
    -0.32 | i
- CCCCCN(C(=O)CCC(=O)OCC(=O)c1cccc(OC)c1)c1c(N)n(CCCC)c(=O)[nH]c1=O
    0.97 | i
- CC1=C(C)[N+](=O)C2(O)CCCCC2(C)N1[O-] (stereo not given)
    0.49 | i
- COC(=O)Cn1cc(/C=C/[N+](=O)[O-])c2ccccc21
    1.49 | i
- CN(C)c1nc(SCc2ccccc2)nc(N2CCOCC2)n1
    -0.01 | i
- Cc1[nH]n(C(N)=S)c(=O)c1N=Nc1ccc2ccccc2c1
    -0.27 | i
- CC(C)Cn1c(-c2ccco2)n[nH]c1=S
    -1 | i
- CCCCN(C)C(=O)c1coc(=O)c2ccccc12
    0.13 | i
- Cc1cccc(N2CCN(C3CCCCC3NS(=O)(=O)c3ccccc3)CC2C)c1 (stereo not given)
    -1.32 | i
- CCOc1cc(N2CCOCC2)c(OCC)cc1NC(=O)Cn1nc(C)c([N+](=O)[O-])c1C
    -1.91 | i
- CCC(C)c1ccc(S(=O)(=O)N2CCN(c3ccccn3)CC2)cc1 (stereo not given)
    -0.33 | i
- O=S(=O)(/C=C/c1ccccc1)N1CCN(c2ccc(F)cc2)CC1
    0.74 | i
- COc1cc2c(cc1OC)C(c1ccncc1)CC(=O)N2 (stereo not given)
    -2.17 | i
- O=S(=O)(NC1CCCCC1N1CCN(c2cccc(Cl)c2)CC1)c1ccccc1 (stereo not given)
    -0.71 | i

Order of values – KCNQ2 inh baseline | KCNQ2 inh
- COc1cccc(NC(=O)c2cc3ccccc3cc2OC)c1
    0.78 | i
- COc1ccccc1N1CCN(c2ccc([N+](=O)[O-])cn2)CC1
    1.5 | i
- O=S1(=O)CCN2C=C(Br)C=C(Br)C2=N1
    -0.99 | i
- CCCCOP(=O)(OCCCC)C(O)c1ccc(F)cc1 (stereo not given)
    -1.17 | i
- COCC1CCN(C(=O)C2CCC(=O)N(C3CCCC3)C2)CC1 (stereo not given)
    -0.79 | i
- Cc1noc(NC(=O)c2ccccc2C(F)(F)F)c1C#N
    2.04 | i
- COc1ccc(C(CNC(=O)c2oc3cc(C)c(Cl)cc3c2C)N2CCCCC2)cc1 (stereo not given)
    3.43* | -5.79*
- CCOc1ccc(C(c2c(C)[nH][nH]c2=O)c2c(C)[nH][nH]c2=O)cc1OCC
    0.64 | i
- O=C1N=C(N2CCOCC2)S/C1=C/c1ccc(-c2ccc(F)cc2)o1
    0.51 | i
- Cc1cccc(NC(=O)c2ccc(N3CCOCC3)c([N+](=O)[O-])c2)n1
    -1.36 | i
- COc1ccc(CCN2C(=O)CC(N3CCN(S(=O)(=O)c4ccccc4)CC3)C2=O)cc1 (stereo not given)
    0.64 | i
- COc1ccccc1CNC(=O)C1CC2Cn3c(nc4cc5ccccc5cc43)C2N1C (stereo not given)
    0.07 | i
- CSc1nnc(-c2cccn(Cc3cccc(Cl)c3)c2=O)o1
    -1.83 | i
- CCn1c(CC(=O)Nc2cccc(Cl)c2Cl)nnc1SCCOc1ccc(OC)cc1
    -0.22* | -6.11*
- Cc1ccccc1CC(=O)c1ccc(O)c(C)c1O
    1.4 | i

Order of values – KCNQ2 inh baseline | KCNQ2 inh
- CC(C)n1c(NCc2ccc(N(C)C)cc2)nc2ccccc21
    -0.96 | i
- Cc1nc(SC(C(=O)c2ccccc2)c2ccccc2)nc2ccccc12 (stereo not given)
    -0.13 | i
- CCN1CCN(CCC(=O)Nc2cc(OC)ccc2OC)CC1
    0.07 | i
- CC(=O)NS(=O)(=O)c1ccc(N=c2ssc3c2-c2cc(C)c(C)cc2NC3(C)C)cc1
    -0.09 | i
- CN(C)C(CNC(=O)CNC(=O)c1ccc2ccccc2c1)c1ccccc1 (stereo not given)
    2.22 | i
- COc1c(C(=O)Nc2c(C)n(C)n(-c3ccccc3)c2=O)ccc2ccccc12
    -0.3 | i
- Cc1ccc(-c2nc3ccccc3c(=O)n2N)cc1
    -0.12 | i
- CCN(CC(=O)Nc1ccc(NC(C)=O)cc1)C(=O)c1cccc(S(=O)(=O)N2CCCC2)c1
    1.02 | i
- CC(C)c1ccc(CC(NC(=O)c2ccccc2)C(=O)NCC(=O)O)cc1 (stereo not given)
    0.78 | i
- O=C(CCN1CCCCC1)Nc1cccc(Cl)c1
    -0.97 | i
- C=CCNC1=C(Cl)C(=O)N(c2cccc(Cl)c2Cl)C1=O
    2.01 | i
- Cc1ccc(C(=O)Nc2ccc(S(=O)(=O)NCc3ccco3)cc2)cc1
    0.09 | i
- COC(=O)c1cc(C#N)c(Oc2ccc(OC)cc2)nc1C
    -0.79 | i
- Cc1[nH]nc2c1C(c1cnn(C)c1)C(C#N)=C(N)O2 (stereo not given)
    -0.68 | i
- Oc1ccc(N=Cc2sc3ccccc3c2Cl)cc1
    0.67 | i

Order of values – KCNQ2 inh baseline | KCNQ2 inh
- CC(C)CN1CCC(=O)N(CCOc2ccccc2)CC1
    -0.57 | i
- CC1CC(C)CN(c2oc(-c3ccco3)nc2C#N)C1 (stereo not given)
    1.17 | i
- CCCc1cc(=O)[nH]c(SCC(=O)c2cc(C)n(CCC)c2C)n1
    1.04 | i
- CCCCn1c(=N)n(CCOc2ccc(C)cc2)c2ccccc21
    0.76 | i
- O=C(CSc1nnnn1C1CCCCC1)N1CCc2ccccc21
    -0.02 | i
- CN1CCc2nc3sc(C(=O)NCc4ccccc4)c(N)c3cc2C1
    -0.89 | i
- O=C(CNC(=O)c1ccccc1F)OCC(=O)c1ccc(Cl)s1
    -0.61 | i
- CCn1c(-c2sc(-c3ccccc3)nc2C)n[nH]c1=S
    0.96 | i
- COc1cccc(CNc2ncn[nH]2)c1OCc1ccc(F)cc1
    -1.4 | i
- O=C1C(C=NCc2ccco2)=C(O)c2ccccc21
    -0.04 | i
- CCn1c(SCC(=O)Nc2ccccc2)nnc1C1CCCCC1
    1 | i
- CC(C)N(C(=S)Nc1cc(S(=O)(=O)N2CCOCC2)ccc1Cl)c1ccccc1
    2.09 | i
- Cc1cc(C)c(C(=O)COC(=O)c2cccc(S(=O)(=O)NCc3ccccc3)c2)cc1C
    1.15 | i
- COc1ccccc1C1(O)CCN(CC(=O)Nc2c(C)nn(C)c2C)CC1
    0.01 | i

Compound activity as filed in PubChem BioAssay.
